# Bioassay records (PubChem)
# Arbovirus anti – arbovirus infection inhibition; arbovirus infection cell-based antiviral screen; inhibition, % at 10 µM; 200,000 compounds, 0.37% hits; AID 1251;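 active means inhibition from about 30%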;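 further: bluetongue infection of BSR cells; cell survival read as ATP light after 72 h; 0% = infected wells without compound and 100% = uninfected wells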
# YopH PTP inh – YopH (Yersinia) phosphatase inhibition. inhibition, %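 (about 10 µM by stock and volumes)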. 140,000 compounds, 0.16% hits. AID 898. fluorescence Ex485/Em525;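 active means inhibition of 50% or more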;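 further: controls were vehicle for no effect and minimum signal wells for full effect; inactives centre near -20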
# Mtb growth – M. tuberculosis H37Rv growth inhibitors, H37Rv strain (AID 1626); M. tuberculosis H37Rv growth inhibition; higher % means a stronger effect; inhibition, % at 10 µM, or IC50 in µM where a hit was titrated; 220,000 compounds, 0.95% hits;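 active means confirmed in a dose series; inconclusive means inhibition above 80% but not taken into the dose series; inactive means below 80% or under 30% at every dose of the series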;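 further: bacteria incubated seven days before Alamar blue readout; 0% = bacteria only wells and 100% = bacteria with antibiotic wells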
# RecA splice inh – inhibitors of M. tuberculosis RecA intein splicing; cell-free RecA intein splicing, fluorescence; inhibition, %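 (about 9 µM by stock and volumes)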; 290,000 compounds, 0.75% hits; AID 2221; in the data active means inhibition above about 30%; inconclusive means no clear call, values can overlap the other calls;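 further: 0% = vehicle wells and 100% = reference inhibitor control wells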
# Target sequence (P9WHJ3 whole entry, looked up, canonical isoform): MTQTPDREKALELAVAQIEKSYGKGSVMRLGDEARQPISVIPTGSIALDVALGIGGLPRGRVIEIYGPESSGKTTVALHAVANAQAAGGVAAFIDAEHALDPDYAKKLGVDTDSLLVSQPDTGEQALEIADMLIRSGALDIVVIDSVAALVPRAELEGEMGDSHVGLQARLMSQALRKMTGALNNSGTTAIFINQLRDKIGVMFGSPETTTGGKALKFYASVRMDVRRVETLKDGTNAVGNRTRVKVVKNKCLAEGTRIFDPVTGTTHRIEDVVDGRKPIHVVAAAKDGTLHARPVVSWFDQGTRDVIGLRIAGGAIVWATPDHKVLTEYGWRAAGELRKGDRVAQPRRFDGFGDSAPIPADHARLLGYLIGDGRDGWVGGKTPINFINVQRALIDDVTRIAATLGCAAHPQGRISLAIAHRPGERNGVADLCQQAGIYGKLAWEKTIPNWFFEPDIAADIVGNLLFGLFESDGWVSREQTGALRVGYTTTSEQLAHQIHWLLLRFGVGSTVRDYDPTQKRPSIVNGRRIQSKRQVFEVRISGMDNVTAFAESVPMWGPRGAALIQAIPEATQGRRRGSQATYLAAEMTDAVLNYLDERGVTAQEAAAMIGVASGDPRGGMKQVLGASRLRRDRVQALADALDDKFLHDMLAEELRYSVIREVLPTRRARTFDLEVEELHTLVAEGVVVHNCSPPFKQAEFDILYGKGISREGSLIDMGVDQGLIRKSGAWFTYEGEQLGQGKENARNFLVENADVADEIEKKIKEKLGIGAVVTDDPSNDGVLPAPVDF
# Mtb bLac sens – beta-lactam sensitization of Mtb H37Rv; M. tuberculosis H37Rv growth with meropenem, percent inhibition; hits of this screen are not shown here; inhibition, % at 25 µM; 330,000 compounds, 0.27% hits; AID 434955;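 active means about 74% or more and at least 40 points above the plate without the antibiotic, then above 30% in a dose series; inconclusive means first-round hits that could not be retested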;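 further: growth measured after seven days incubation then overnight dye step; 0% = bacteria only wells and 100% = bacteria with antibiotic; twin plates without the antibiotic show which effects depend on it; some results filed as inactive read as strong as hits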
# Arbovirus anti repeat – second read-out of Arbovirus anti, no call of its own (marks repeat the call); inhibition, %; measured here: 10K subset replicate screen; many hits read low in the repeat;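 first of two repeat runs on a subset; 0% = infected and 100% = uninfected wells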
# * marks the source's active call; other numbers are inactive results; ? = inconclusive; nt = no result given. Only part of the results is shown; the hit share may differ from the screen's.
SMILES,Arbovirus anti,YopH PTP inh,Mtb growth,RecA splice inh,Mtb bLac sens,others
COc1ccccc1C(CNc1ncccc1[N+](=O)[O-])N(C)C (stereo unspecified),nt,nt,nt,3.5,2.4,
NS(=O)(=O)c1cc(C(=O)NC2CCSc3ccccc32)ccc1Cl (stereo unspecified),nt,nt,nt,5.7,-3.3,
O=C(Nc1ccc2nc(-c3cccnc3)[nH]c2c1)c1ccco1,-5.9,-30.6,-9.1%,-0.1,-2.8,Arbovirus anti repeat=-1.7
C#CC(CC)(CC)NC(=O)/C=C/C(=O)O,nt,nt,1.6%,1.4,-7.0,
[O-]c1c[n+](-c2ccccc2)no1,nt,nt,-7.4%,-4.7,-5.5,
C/C(=N\NC(=O)Cn1ccc(C(F)(F)F)n1)c1ccco1,3.9,nt,-3.1%,-2.6,1.6,
c1coc(CNCc2cccs2)c1,8.0,-2.4,-5.1%,-1.4,0.7,
CN(C(=O)COC(=O)CCC(=O)c1ccc(Cl)cc1)c1c(N)n(Cc2ccccc2)c(=O)[nH]c1=O,nt,nt,nt,-0.3,-4.0,
COc1ccc(S(=O)(=O)N2CCN(CCCOc3ccc(F)cc3)CC2)cc1OC,nt,nt,nt,-0.2,3.9,
CC(=O)Nc1ccc(S(=O)(=O)N2CCC(N3CCCCCC3)CC2)cc1,nt,nt,nt,-3.0,-5.7,
Cc1ccc(C(=O)Nc2ccc3c(c2)C(=O)NC3=O)cc1,nt,nt,nt,-1.7,-3.7,
COc1ccc(C(O)(CC(C)C)C(CN2CCOCC2)c2ccccc2)cc1 (stereo unspecified),nt,nt,nt,4.0,8.3,
COC(=O)c1c(NC(C)=O)sc(C(=O)N2CCOCC2)c1C,nt,nt,nt,-7.1,0.5,
CCCNC(=O)CN1C(=O)COc2ccc(S(=O)(=O)N3CCCCCC3)cc21,nt,nt,nt,1.5,-2.8,
CCOC(=O)C1=C(COC(=O)c2ccc(Br)o2)NC(=O)NC1C (stereo unspecified),nt,nt,nt,2.6,-5.4,
COCCn1c(=NC(=O)c2cc(-c3cccs3)nc3ccccc23)sc2cc(S(N)(=O)=O)ccc21,-2.9,-1.9,79.4%,-8.6,85.7,
O=C(CCCCCNC(=O)c1ccccc1Cl)N/N=C/c1ccco1,-1.4,nt,4.3%,-1.8,1.4,
COc1ccc(NC(=O)c2ccccc2NC(=O)c2ccccc2)cc1,nt,nt,nt,-0.9,2.0,
CC(C)NC(=S)NCc1cccs1,3.0,nt,-2.3%,2.3,-3.3,
CCOc1ccccc1-n1c(=O)c2ccccc2c2ccccc2c1=O,1.8,-5.2,0.2%,19.3,2.8,
Cc1ccc(-c2nc3ccccc3n3c(C)nnc23)cc1,4.5,-1.3,-8.1%,nt,nt,
CCOC(=O)[C@H]1NN=C(C(=O)OC)[C@@H]1c1ccccc1,1.5,-47.2,1.5%,-0.8,-6.1,
CCOC(=O)c1ccc(N2C(=O)C(C)=C(C)C2=O)cc1,-10.1,-51.8,?,0.3,98.8,
CSCCC(NS(=O)(=O)c1ccc(Cl)c(Cl)c1)C(=O)O (stereo unspecified),7.2,nt,1.4%,1.4,2.0,
CCC1SC(CC)C(=O)N(CC(=O)NCc2ccc(F)cc2)C1=O (stereo unspecified),6.5,nt,-3.0%,-3.2,3.2,
O=C(Nc1ccccc1)Nc1ccccc1C(=O)NCCCN1CCOCC1,nt,nt,-11.7%,0.6,0.7,
Cc1cc(C)n2nc(S(=O)(=O)Nc3c(Cl)cccc3Cl)nc2n1,22.8,nt,-11.5%,2.7,99.7,
CC(C)N(Cc1ccccc1)C(=O)c1cnc2n(c1=O)CCS2,7.2,5.5,2.0%,-7.5,0.3,Arbovirus anti repeat=-0.9
CC(=O)C(C)Sc1nnc(-c2ccccc2F)n1C1CC1 (stereo unspecified),nt,nt,nt,-3.8,-6.5,
Cc1ccc(C(=O)NCCOc2cccc3cccnc23)cc1Cl,3.0,nt,3.5%,0.9,-5.2,
CCCCCN(C(=O)CN1CCC(Cc2ccccc2)CC1)c1c(N)n(CCCC)c(=O)[nH]c1=O,-2.5,nt,7.1%,0.8,-8.8,
COc1cc(C=O)c(Cl)cc1OCC(N)=O,7.0,nt,8.4%,-6.0,-2.9,
Cc1ccc(NS(=O)(=O)c2c(C)[nH]c(C)c2C(=O)N2CCCCC2)cc1C,nt,nt,nt,-2.5,-1.1,
CC1CN(S(=O)(=O)c2ccc(C(=O)Nc3ccc(S(=O)(=O)Nc4ncccn4)cc3)cc2)CC(C)O1 (stereo unspecified),8.7,-22.2,-5.5%,-1.1,-5.5,
CCOc1ccc(N2C(=O)Nc3ccccc3C2(O)C(=O)NCc2ccc(F)cc2)cc1 (stereo unspecified),0.0,nt,4.6%,0.3,-5.5,
CC(=O)c1cc2c(cc1NC(=O)c1c(-c3ccccc3)noc1C)OCO2,-9.0,-18.3,2.7%,-2.8,0.6,
O=C1c2ccccc2C(=O)N1Cc1ccco1,4.5,3.5,-5.6%,-0.6,-4.2,
CCCCNS(=O)(=O)c1ccc2nc(SCC(=O)Nc3ccccc3)[nH]c2c1,7.5,-17.4,2.9%,4.8,0.6,
COc1ccccc1OCC(=O)N1CCCC(N(C)Cc2ccccc2)C1 (stereo unspecified),nt,nt,nt,-7.0,-9.9,
O=Cc1cccn1Cc1ccccc1[N+](=O)[O-],3.3,-14.4,4.9%,0.3,-0.7,
CS(=O)(=O)N(CC(=O)N1CCCCC1)c1cccc(F)c1,3.7,nt,-1.9%,1.0,-0.7,
O=c1c2nnn(-c3cccc(F)c3)c2ncn1Cc1ccccn1,5.8,nt,-0.9%,1.2,-9.3,
CN(C)/N=C/C=C1\CC/C(=C\c2ccc(Br)cc2)C1=O,2.2,-3.8,nt,0.6,1.3,
O=C(O)CCC(=O)NCc1ccc2[nH]c3c(c2c1)CCCC3,1.6,19.5,7.8%,-40.5,0.6,Arbovirus anti repeat=3.6
CCOC(=O)c1c(NC(=O)CSc2ncccn2)sc2c1CCN(Cc1ccccc1)C2,4.6,2.6,17.9%,nt,nt,
COc1cc(CNc2ccc(N3CCN(C(C)=O)CC3)cc2)ccc1OCc1ccc(F)cc1,-4.2,nt,95.2%,2.3,?,
CS(=O)(=O)N1CCc2cc(C(=O)Nc3cccc([N+](=O)[O-])c3)ccc21,nt,nt,nt,-1.7,-3.8,
O=C(N/N=C/c1cc([N+](=O)[O-])ccc1O)C12CC3CC(CC(C3)C1)C2,-11.6,nt,55.5%,2.7,99.1,
CSc1ccc(-c2c(C#N)c(N)nc3c2CCCC3)cc1,-9.0,-48.9,-6.3%,-2.6,0.1,
COc1ccc(-c2cccc(NS(=O)(=O)c3cc([N+](=O)[O-])c(C)c([N+](=O)[O-])c3)c2)nn1,nt,nt,nt,-0.9,-4.3,
Nn1cnnc1N/N=C\c1ccc(-c2ccccc2[N+](=O)[O-])o1,-18.1,38.9,4.3%,16.4,nt,
CCOc1ccc(CN2CCC(C(=O)Nc3cccc(-c4ccn[nH]4)c3)CC2)cc1Cl,nt,nt,nt,2.2,5.7,
Cc1oc(C(C)(C)C)cc1C(=O)N1CCN(c2ccc(C(F)(F)F)cn2)CC1,nt,nt,-2.5%,4.4,-5.5,
CC1=C(C(N)=O)C(c2ccccc2)n2nc(-c3cccs3)nc2N1 (stereo unspecified),-0.3,-40.5,-5.5%,-0.5,-2.5,Arbovirus anti repeat=0.9
O=C(CCC1CCCN(Cc2ccc3c(c2)OCCO3)C1)NCc1ccccc1F (stereo unspecified),nt,nt,-11.3%,0.8,-3.4,
O=C(N/N=C/c1cccs1)c1[nH]ncc1Br,nt,nt,nt,-0.8,3.3,
Nc1c([N+](=O)[O-])c(=O)sc2ccccc12,8.4,nt,4.9%,0.0,-2.0,
COc1ccc(OC)c(NC(=O)C2CCN(c3nc(C)cc(C)n3)CC2)c1,-2.4,7.4,-2.2%,-2.0,-0.3,
CCC(CCC(=O)Nc1cccc([N+](=O)[O-])c1)C(=O)O (stereo unspecified),nt,nt,-4.7%,1.8,-2.7,
CNC(=O)COC(=O)CCC(=O)c1ccc(Cl)cc1,-1.2,nt,-4.9%,-2.6,-6.3,

# Following part:
SMILES,Arbovirus anti,YopH PTP inh,Mtb growth,RecA splice inh,Mtb bLac sens,others
O=C(COc1ncnc2ccccc12)N1CCN(S(=O)(=O)c2ccccc2)CC1,1.9,-47.6,-3.6%,0.9,-4.7,
Cc1ncc(CN2CCCC(C(=O)Nc3ccc(-n4ccnc4C)cc3)C2)cn1 (stereo unspecified),nt,nt,nt,1.3,-7.5,
O=C(O)c1cccc(CSc2ncn[nH]2)c1,nt,nt,4.0%,3.1,-1.5,
Cc1cc(C(=O)Nc2ccccn2)cs1,-5.2,-1.9,-8.9%,0.0,-6.2,
Cc1sc(NC(=O)CN(Cc2ccc(F)cc2)C(=O)C(C)(C)C)c(C(N)=O)c1C,4.7,-25.1,17.6%,-1.0,4.3,
CCN1CCN(C(CNS(=O)(=O)c2ccc(OC)c(C)c2)c2cccnc2)CC1 (stereo unspecified),nt,nt,nt,-0.2,4.0,
O=C(Nc1ccc(S(=O)(=O)Nc2ccccc2F)cc1)N1CCCCC1,nt,nt,nt,-1.2,-6.5,
O=C(Cn1c(=O)sc2ccccc21)Nc1ccccc1C(=O)O,-1.4,-69.1,nt,-0.8,-2.3,Arbovirus anti repeat=0.3
CCS(=O)(=O)c1nc(S(=O)(=O)c2ccc(C)cc2)c(N2CC(C)CC(C)C2)s1 (stereo unspecified),nt,nt,nt,-8.3,69.5,
Cc1ccc(S(=O)(=O)NN2Cc3ccccc3C2=N)cc1,8.6,nt,-7.5%,1.1,-1.0,
CN(C)C(CNC(=O)CCC(=O)c1ccc(Br)cc1)c1ccccc1 (stereo unspecified),nt,nt,nt,-0.4,4.2,
Cc1ccnc(Sc2nc3c(c(=O)[nH]c(=O)n3C)n2CCCc2ccccc2)n1,2.1,-36.9,-3.2%,-1.0,1.4,Arbovirus anti repeat=9.6
COC(=O)c1ccc(N=NN2CCCCCC2)cc1,1.8,1.6,-3.2%,5.6,2.4,
CN(C)S(=O)(=O)Oc1cccc(C(=O)Nc2cccc(Cl)c2)c1,-2.5,-53.0,-11.8%,nt,-0.6,
CC(=O)NC(c1ccc(C)cc1)c1cc([N+](=O)[O-])c2cccnc2c1O (stereo unspecified),-25.1,nt,-12.1%,3.9,11.1,
CCCCc1cc(-c2n[nH]c(=S)o2)c2ccccc2n1,nt,nt,nt,5.8,9.8,
COc1ccccc1C(=O)Nc1ccc(Br)cc1C,-0.9,nt,4.4%,1.3,15.2,
CN(C)c1ccc(C(=O)OCC(=O)NCCC2=CCCCC2)cc1,-0.8,nt,7.1%,6.8,-0.9,
Cc1cccc(N2C(=O)NC(=O)/C(=C\c3ccc(N4CCOCC4)cc3)C2=O)c1,nt,nt,-7.1%,-5.0,-4.9,
CC(=O)NC(c1ccc(C(C)C)cc1)c1c(O)ccc2ccccc12 (stereo unspecified),nt,nt,nt,-0.4,-11.8,
O=C(CCN1CCCCC1)NCC(=O)Nc1ccc(Br)cc1C(=O)c1ccccc1,3.5,-18.9,0.9%,-2.0,7.2,
O=C(/C=C/c1ccc(Cl)cc1)Nc1ccc(CN2CCOCC2)cc1,-26.8,-15.1,8.9%,nt,18.3,
COc1ccc(-n2ccnc2)cc1,-1.8,nt,1.8%,-2.1,9.0,
CN(C)C(CNC(=O)c1ccc(NS(=O)(=O)c2ccc3[nH]c(=O)[nH]c3c2)cc1)c1ccccc1 (stereo unspecified),nt,nt,nt,-0.4,-5.2,

# 3 records drawn at random from the list so far:
SMILES,Arbovirus anti,YopH PTP inh,Mtb growth,RecA splice inh,Mtb bLac sens,others
O=C(/C=C/c1ccc(Cl)cc1)Nc1ccc(CN2CCOCC2)cc1,-26.8,-15.1,8.9%,nt,18.3,
CN(C)S(=O)(=O)Oc1cccc(C(=O)Nc2cccc(Cl)c2)c1,-2.5,-53.0,-11.8%,nt,-0.6,
CN(C)c1ccc(C(=O)OCC(=O)NCCC2=CCCCC2)cc1,-0.8,nt,7.1%,6.8,-0.9,

# (listing goes on)
SMILES,Arbovirus anti,YopH PTP inh,Mtb growth,RecA splice inh,Mtb bLac sens,others
S=c1[nH]nc(C2CCCCC2)o1,4.9,nt,1.4%,0.7,-5.5,
Cc1cc(C)cc(OCC(=O)Nc2cc(NC(=O)COc3cc(C)cc(C)c3)cc(C(=O)O)c2)c1,nt,nt,nt,1.5,2.7,
Cc1cccn2c1nc(=S)n2C(=O)c1ccco1,-2.5,-30.2,-3.5%,-0.3,15.2,
COc1ccc(S(=O)(=O)Nc2ccc(N3CCOCC3)cc2)cc1[N+](=O)[O-],8.9,nt,-1.8%,-2.4,1.1,
CC(C)(C)c1ccc(S(=O)(=O)N2C=CC(C(F)(F)F)=NCC2)cc1,8.3,-2.5,-12.4%,-0.1,-0.2,
COc1cc(C=O)ccc1OC(=O)c1ccc(C(C)C)cc1,7.5,nt,3.3%,18.1,-3.0,
